# KCNQ2 pot = enhances the rat KCNQ2 potassium channel. CHO-K1 KCNQ2, FluxOR thallium flux fluorescence; active compounds read high. B-score at 10 µM. actives 0.54% (n = 310,000). O88943;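 active = fluorescence ratio B-score at least 3 SD of library B-scores, with initial fluorescence B-score within 3 SD, cut at about 5.3 in these data; same plate scores as AID 2156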;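 note: B-score of peak minus minimum over baseline fluorescence ratio after K+ and Tl+ stimulus; positive B-score means potentiation of KCNQ2 with more thallium influx and brighter signal; only the inactives scoring about 0 or higher are listed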
# Target sequence (O88943 whole entry, looked up): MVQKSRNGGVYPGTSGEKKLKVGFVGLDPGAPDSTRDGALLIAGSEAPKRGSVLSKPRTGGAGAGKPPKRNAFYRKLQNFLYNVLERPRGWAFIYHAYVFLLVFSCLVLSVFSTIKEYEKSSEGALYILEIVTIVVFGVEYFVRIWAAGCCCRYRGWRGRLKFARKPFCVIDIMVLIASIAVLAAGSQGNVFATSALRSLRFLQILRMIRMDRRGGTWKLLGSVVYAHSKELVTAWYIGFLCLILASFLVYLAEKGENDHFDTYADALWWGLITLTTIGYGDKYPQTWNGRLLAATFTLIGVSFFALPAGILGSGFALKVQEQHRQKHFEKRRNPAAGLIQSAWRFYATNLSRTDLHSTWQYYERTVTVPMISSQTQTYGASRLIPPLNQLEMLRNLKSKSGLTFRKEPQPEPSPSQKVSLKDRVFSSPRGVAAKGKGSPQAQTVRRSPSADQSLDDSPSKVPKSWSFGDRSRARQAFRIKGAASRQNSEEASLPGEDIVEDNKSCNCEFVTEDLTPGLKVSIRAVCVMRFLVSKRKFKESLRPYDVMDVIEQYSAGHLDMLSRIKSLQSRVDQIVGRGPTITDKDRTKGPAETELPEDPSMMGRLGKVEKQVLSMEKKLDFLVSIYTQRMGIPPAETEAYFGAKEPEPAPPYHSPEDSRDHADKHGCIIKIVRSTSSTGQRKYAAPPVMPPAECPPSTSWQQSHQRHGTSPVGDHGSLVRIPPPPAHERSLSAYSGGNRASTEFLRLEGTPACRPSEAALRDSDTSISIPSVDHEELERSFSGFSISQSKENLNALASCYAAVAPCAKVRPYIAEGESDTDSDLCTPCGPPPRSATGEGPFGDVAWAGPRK
# KCNQ2 pot baseline = further read-out of KCNQ2 pot, marked with its call; B-score; compound at 10 µM; measured here: initial fluorescence intensity artifact check;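 brightness before thallium and not channel activity; 0 = typical well and far values either way flag optical interference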
# * marks the source's active call; other numbers are inactive results.
KCNQ2 pot | KCNQ2 pot baseline | molecule
0.28 | 0.16 | COC(=O)c1ccc(C(=O)OC)c(NC(=O)COC(=O)C2CCCCC2)c1
1.2 | -0.33 | CC(=O)Nc1ccc(S(=O)(=O)Nc2ccc(S(=O)(=O)N3CCCC3)cc2)cc1
0.48 | -0.78 | COc1ccc(NC(=O)N(Cc2cc3cc(OC)ccc3[nH]c2=O)CC2CCCO2)cc1 (centres undefined)
1.5 | -0.48 | COC(=O)c1cccc(Nc2nc(-c3ccncc3)nc3ccccc23)c1
0.78 | -0.1 | COc1ccc(NC(=O)COC(=O)Cc2c(F)cccc2Cl)cc1OC
0.88 | -0.55 | CCOc1ccc(Cc2nnc(SCC(N)=O)n2C)cc1
0.04 | -1.7 | O=C(O)c1csc(-c2cccc(Cl)c2)n1
0.14 | 0.68 | COc1ccccc1NC(=O)CSc1nnc(Cc2cc(=O)[nH]c(=O)[nH]2)n1-c1ccccc1
0.11 | 0.82 | Nn1c(SCC(=O)Nc2ccc3c(c2)OCO3)nnc1-c1ccc(Cl)cc1
0.01 | 0.97 | CN1[C@@H]2CC[C@H]1CC(OC(=O)c1c[nH]c3ccccc13)C2 (some centres undefined)
0.35 | 2 | CCOc1ccc(C2C(C#N)=C(N)Oc3cc(O)ccc32)cc1OCC (centres undefined)
0.79 | -1.9 | CC(=O)Nc1cccc(NC(=O)CSc2nccn2Cc2ccco2)c1
0.24 | -0.76 | Cc1ccc(Cl)cc1N(CC(=O)N1CCCCCC1)S(C)(=O)=O
0.66 | -0.29 | COc1ccc(NC(=O)c2sc(N)nc2-c2ccccc2)cc1
0.07 | 0.76 | NCCCCCc1nnc(SC/C=C/c2ccccc2)o1
1.2 | -2 | Cc1onc(-c2ccccc2)c1C(=O)NC(=S)NNC(=O)c1ccccc1O
1 | -0.03 | CCOC(=O)CSc1nc(N2CCOCC2)c2c(c1C#N)CC(C)(C)OC2
0.25 | 2.2 | COc1ccc(N2CCN(C(=O)NCc3ccc(C)cc3)CC2)cc1
0.62 | -0.36 | O=C1CSC(c2cccc([N+](=O)[O-])c2)N1CCc1ccccc1 (centres undefined)
1.5 | -0.85 | COc1ccc(CCC(=O)O)c(O)c1
1.4 | -0.16 | CCc1nn(CC(=O)NCCN2CCN(C)CC2)c(=O)c2cc3c(OC)cccc3n12
0.3 | -0.19 | Cc1ccc(/C=N/NC(=O)CN2CCN(Cc3ccccc3Cl)CC2)o1
1 | -0.81 | Cc1ccc(S(=O)(=O)Nc2cc(C(F)(F)F)ccc2N2CCOCC2)cc1C
0.94 | -0.97 | Cc1nc2ccccc2n1CC(=O)OCC(=O)NCCc1ccccc1
0.67 | 0.61 | COc1ccc(-c2ccc(CCC(=O)O)n2NC(=O)c2ccc(C(C)(C)C)cc2)cc1
0.24 | -0.43 | COc1ccc(C2=NN3C(C2)c2ccccc2OC3c2cccs2)cc1 (centres undefined)
4.8 | -0.88 | O=C(NCc1ccccc1)NC1CCCCC1
2.3 | 0.82 | CCN(CC)CCCOc1ccc(Cl)c(Cl)c1
0.48 | 0 | COc1ccc(C2C3(C#N)C(N)=NC(OC)(OC)C23C#N)cc1 (centres undefined)
1.4 | 1.4 | CCC(OC(=O)CC1Sc2ccccc2NC1=O)C(=O)NCC1CCCO1 (centres undefined)
0.63 | -0.16 | COc1cc(/C=N/NC(=O)Cc2ccccc2)cc([N+](=O)[O-])c1O
1.1 | -1.5 | CC1Cc2ccccc2N1C(=O)COC(=O)CCc1nc2ccccc2c(=O)[nH]1 (centres undefined)
1.2 | -0.95 | Cc1cc(=O)[nH]c(N2CCN(Cc3ccccc3)CC2)n1
1.6 | -0.93 | Cc1ccc(C2=NN(CCC(=O)NCc3ccc4c(c3)OCO4)C(=O)CC2)cc1
0.79 | 0.03 | COc1cc(/C=N/NC(=O)c2cc(-c3ccccc3C)nc3ccccc23)cc(OC)c1O
0.08 | -0.81 | CCc1cccc(OCC(O)Cn2c(N3CCCCC3)nc3c2c(=O)[nH]c(=O)n3C)c1 (centres undefined)
1.1 | 0.35 | COC(=O)c1ccc(C)c(NC(=O)CSc2sc3c(O)cc(=O)[nH]c3c2C#N)c1
0.01 | -0.39 | C#CCOCCOCCOCCNc1nc(N2CCN(C(=O)[C@H]([C@@H](C)CC)n3cc([C@@H](N)CC(C)C)nn3)CC2)nc(N2CCN(C(=O)[C@H](Cc3cc4ccccc4[nH]3)n3cc([C@@H](N)CC(C)C)nn3)CC2)n1
1.2 | -0.03 | S=C(c1ccc(N2CCOCC2)cc1)N1CCCCC1
0.27 | 0.9 | COc1cccc(-c2cc(C(=O)O)[nH]n2)c1
0.49 | 1.2 | O=C(NCC1CCCO1)c1cc2ccccc2o1 (centres undefined)
2.2 | -0.77 | Cc1nn(-c2ccccc2)c(C)c1/C=N/NC(=O)c1cc(C(C)(C)C)[nH]n1
0.48 | -0.03 | Cc1ccc(-n2ncc3c(=O)[nH]c(SCC(=O)N4CCCC4)nc32)cc1C
0.34 | -1.1 | CCCCCCCCNc1nc(Cl)nc(NCc2ccco2)n1
0.46 | -1.6 | O=C(Nc1ccc(S(=O)(=O)N2CCOCC2)cc1)C1CC1
1.2 | -0.16 | Cc1nn(Cc2ccccc2Cl)c(C)c1N
1.7 | -0.82 | CN1CCN(C(=O)C2CCCN(S(=O)(=O)c3ccc(F)cc3)C2)CC1 (centres undefined)
0.07 | 6.6 | COc1cccc(CC(=O)Nc2nc(-c3cc(OC)ccc3OC)cs2)c1
0.03 | 0.23 | O=C(CSc1nnc(-c2ccc(S(=O)(=O)N3CCOCC3)cc2)o1)c1ccccc1F
0.98 | -1.6 | COc1ccc(-c2cc(=O)oc3cc(OCC(=O)NCc4ccccn4)ccc23)cc1
1.1 | -2 | CN(C)c1ccc(S(=O)(=O)N2CCCCC2)cc1NC(=O)C1=COCCO1
0.91 | 0.48 | CC(C)c1c(O)c2c(n(-c3ccccc3)c1=O)CCCC2
2.9 | -1.4 | COC(=O)c1c(NC(=O)CCC(=O)O)sc(Cc2ccccc2)c1C
0.13 | -0.91 | C=CCNC(=O)c1onc(CSc2ccc(F)cc2)c1C(=O)NCCOC
1.4 | -0.72 | CN(C)S(=O)(=O)c1ccc(C(=O)OCC(=O)NCc2ccccc2)cc1
0.14 | -0.96 | CCN(CC)c1ccc(NC(=O)C2CCC(CNc3c(N4CCCC4)c(=O)c3=O)CC2)c(C)c1 (centres undefined)

# Next records:
KCNQ2 pot | KCNQ2 pot baseline | molecule
0.21 | -0.04 | CCc1ccc(/C=C2/SC(=S)N(CCC(=O)Nc3cccnc3)C2=O)cc1
0.02 | -0.24 | O=C(NN1C(=O)c2ccccc2NC1c1ccco1)c1ccccc1 (centres undefined)
1.6 | -0.57 | COc1ccc(CCN(C)C(=O)c2ccc(S(=O)(=O)Nc3ccccc3F)cc2)cc1OC
2.6 | 0.84 | CC(C)N(CCCNC(=O)c1nn(C)c2c1CS(=O)(=O)c1ccccc1-2)Cc1ccccc1
0.01 | -0.51 | C/C(=N/NC(=O)C1COc2ccccc2O1)c1ccc(Br)s1 (centres undefined)
0.22 | -0.57 | CN(C)C(=O)CSc1nc(SCC(=O)N(C)C)n(-c2ccccc2)n1
0.78 | 0.57 | Cc1ccc(C(=O)c2ccc(N3CCN(C)CC3)c([N+](=O)[O-])c2)cc1
0.06 | 0.3 | CCOC(=O)c1cnc(Cc2ccccc2)[nH]c1=O
1.6 | -0.37 | COc1cc(CCC(=O)OCC(=O)Nc2nc(C)c(Cl)cc2Cl)cc(OC)c1OC
0.2 | -0.12 | COc1ccc(N(CC(O)Cn2c(C)nc3ccccc32)S(=O)(=O)c2ccc(C)cc2)cc1 (centres undefined)
0.14 | -1.1 | O=C(NCCC1=CCCCC1)C(=O)NCC(c1ccco1)N1CCN(c2ccc(F)cc2)CC1 (centres undefined)
0.14 | 1.5 | O=C(CC1NCCNC1=O)OCCCc1ccccc1 (centres undefined)
0.15 | 1 | CCNc1nc(NCC)n2c(SCC(=O)Nc3ccc(CC)cc3)nnc2n1
0.46 | 0.51 | c1ccc2[nH]c(-c3cnco3)cc2c1
1.9 | 0.68 | CCCCC(=O)Nc1ccc(NC(=O)c2ccc([N+](=O)[O-])cc2Cl)cc1OC
1.1 | 0 | CCOC(=O)c1cnc2c(C#N)c(C)nn2c1-c1ccccc1
0.03 | 0.03 | Cc1[nH]c2ccccc2c1CN1CCC(Cc2ccccc2)CC1
3.1 | -0.58 | CCOc1cc(/C=N/Nc2cc(C)nc(-n3nc(C)cc3C)n2)ccc1O
1 | 1.3 | COc1cccc(NC(=O)NCc2ccccc2F)c1
1.1 | 0.26 | O=C(Cn1ncc2c(=O)oc3ccccc3c21)NCCCN1CCCC1=O
0.02 | 1.1 | O=c1c2ccccc2nc(-c2ccccc2)n1Cc1ccco1
0.49 | -0.59 | COc1ccc(CNC(=O)Oc2ccccc2)cc1Cl
0.66 | -2.5 | NCCc1nnc(SCC(=O)c2ccc(Cl)cc2)o1
0.35 | -0.11 | O=C(Nc1nc(-c2ccccc2)c(-c2ccccc2)s1)c1ccc(S(=O)(=O)N2CCCC2)cc1
0.41 | 0.93 | COc1ccccc1-c1nnc(SCC(=O)N2CCC(C)CC2)o1
0.8 | 0.99 | O=C1C(Cc2ccccc2)NC(=S)N1Cc1ccccc1 (centres undefined)
3.2 | 1.2 | N/C(=N\OC(=O)CCC1CCCC1)c1ccccc1
2.1 | -0.74 | O=C(Nc1nc2ccccc2[nH]1)c1ccccc1O
1.4 | -0.2 | CC(=O)c1c(C)[nH]c(C(=O)CSc2nnc(C)s2)c1C
2.4 | 0.05 | Cc1nc2ccc(N=NN(C)C)cc2[nH]1
1 | -1 | CCc1cccc(NC(=O)CCCCCC2NC(=O)NC2C)c1 (centres undefined)
1 | -0.01 | COc1ccc(OC)c(NC(=O)CSc2nnc(CNc3ccc(C)cc3C)o2)c1
0.31 | -2.8 | COC(=O)c1ccc(NC(=O)c2cc3c(CO)cnc(C)c3oc2=Nc2cccc(C(N)=O)c2)cc1
9.2* | 0.01* | Cc1ccc(-c2c(C(=O)NCc3ccc(F)cc3)oc(=O)c3ccccc23)cc1
0.77 | 0.76 | COc1ccc(C2=NN(CC(=O)NCc3ccco3)C(=O)CC2)cc1
0.05 | -0.52 | CN(C)c1ccc(NC(=O)COC(=O)CCC(=O)c2ccc(F)cc2)cc1
0.45 | 0.99 | Cc1ccccc1Cn1c2ccccc2c2cnn(CC(=O)NCCCN3CCOCC3)c(=O)c21
0.05 | 0.87 | COc1ccccc1C1NC(=O)NC(C)=C1C(=O)OC1CCC(C)CC1 (centres undefined)
0.09 | -0.47 | Cc1ccc(-c2nc3ccccc3n3nnnc23)cc1
2.4 | -0.99 | Cc1ccc(CN(C(=O)c2ccccc2[N+](=O)[O-])C2CCS(=O)(=O)C2)o1 (centres undefined)
0.41 | -0.58 | C=CCNC(=O)C(=O)c1c(-c2ccccc2)[nH]c2ccccc12
0.01 | -0.36 | COc1ccc(C(=O)NC2CCN(C(=O)Nc3ccccc3Cl)CC2)cc1
1.5 | 0.01 | CC(=O)Nc1ccc(S(=O)(=O)N2CCC(C(=O)NCCC(=O)Nc3ccccc3)CC2)cc1
0.89 | -0.35 | COc1cc(C(=O)NCCc2ccc(S(=O)(=O)N3CCCC3)cc2)cc(OC)c1OC
0.82 | 0.69 | CCOC1(OCC)C(c2ccc(N)cc2)C(C#N)(C#N)C1(OCC)OCC (centres undefined)
0.7 | 3.2 | CC(C)(C)Nc1nc2cc([N+](=O)[O-])ccc2o1
0.28 | -0.8 | Cc1occc1-c1nnc(SCC(=O)N2CCN(c3ccc(F)cc3)CC2)n1C
0.6 | 2.9 | O=C(O)c1cc(C2CC2)nc2ccccc12
0.35 | 0.15 | CC(C)CCN1C(=O)c2ccc(C(=O)NCC3CCCO3)cc2C1=O (centres undefined)
0.09 | 0.43 | CN1CCN(C(=O)c2cc3nc(-c4ccccc4)cc(-c4ccccc4)n3n2)CC1
0.92 | 1.2 | Cc1cccc(-c2noc(CCC(=O)Nc3ccc(C(N)=O)cc3)n2)c1
1.4 | 1.1 | COC(=O)C(O)(NC(=O)NC(C)=O)C(F)(F)F (centres undefined)
0.42 | 0.14 | COc1ccc(C)cc1NC(=O)c1nnn(Cc2cccc(F)c2)c1N
0.88 | -0.82 | CC1Cc2ccccc2N1S(=O)(=O)c1cccc(C(=O)Nc2cccnc2)c1 (centres undefined)
1.2 | 0.38 | Cc1ccc(Nc2nc(N)nc(CSCCO)n2)cc1
0.14 | -1.2 | CN(CC(=O)N1CCOCC1)C(=O)CSc1nc2ccccc2s1
0.07 | -0.92 | COCC(=O)Nc1cccc(Br)c1
1.3 | -0.97 | CCc1ccccc1N(CC(=O)Nc1cccc(N(C)S(C)(=O)=O)c1)S(C)(=O)=O
2.3 | -3.6 | CCc1nnc(N2CCN(c3ncnc4c3oc3ccccc34)CC2)s1

# High-throughput results deposited in PubChem by Johns Hopkins Ion Channel Center.

# A portion of the library. The share of hits here may be higher or lower than overall.
